Hsc70 ATP site = Hsc70 inhibitors, probe displacement, primary screen, biochemical, fluorescence polarization (AID 568). 83,000 tested, under 10 active. one-dose displacement, % at 20 µM; IC50 in µM for titrated hits. Hsc70 fluorescence polarization, probe displacement; higher % means a stronger effect; strong numbers were not always called active;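 active = displacement above 50% without optical interference and an IC50 on retest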;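 also: ATPase domain with a fluorescein-tagged ATP probe; 0% = vehicle and 100% = excess ADP; read after one hour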
WNV protease inh = inhibitors of West Nile virus NS2B-NS3 protease; P06935; WNV NS2B-NS3 protease, fluorogenic substrate Ex360/Em465; stronger effect = lower value; z-score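 (tested at a level between 10 and 100 µM)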; hit rate 0.18% among 65,000;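 active = z-score at -3 or under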;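 also: score is relative to mean and spread of the compound wells of a plate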
Target sequence (P06935 1371-1501 limits assumed): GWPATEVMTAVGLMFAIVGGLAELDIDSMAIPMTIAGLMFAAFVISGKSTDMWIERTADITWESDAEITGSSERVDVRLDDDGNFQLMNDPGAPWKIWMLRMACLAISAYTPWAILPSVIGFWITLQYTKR
Target sequence (P06935 1502-1679 limits assumed): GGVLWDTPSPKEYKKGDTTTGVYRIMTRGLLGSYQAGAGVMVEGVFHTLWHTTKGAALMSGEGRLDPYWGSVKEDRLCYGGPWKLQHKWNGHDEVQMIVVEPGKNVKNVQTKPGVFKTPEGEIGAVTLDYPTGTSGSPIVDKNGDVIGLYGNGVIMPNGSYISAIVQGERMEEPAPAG
MT1-MMP reporter = inhibitors of MT1-MMP promoter transcription, cell-based, luciferase reporter, luminescence (AID 618); MT1-MMP promoter luciferase reporter cells, luminescence; calls from a first round at 10 µM; hits with a dose series show EC50 in µM; hit rate 0.62% among 87,000;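 active = over half of the reporter light lost at 10 µM or EC50 under 50 µM; inactive = the rest and hits that failed the dose series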;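 also: actives suppress MT1-MMP promoter-driven transcription so potencies describe inhibitors; HT1080 fibrosarcoma cells; overnight exposure; toxic or luciferase-blocking compounds were not removed from the actives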
Starred values were filed as active, the others as inactive; i = inactive; . = no result given; + = active, no number.

Values run as follows: Hsc70 ATP site, WNV protease inh, MT1-MMP reporter
O=C(/C=C/c1ccccc1)c1ccccc1
 : 0.1%, -0.35, i
Cc1cc(O)ccc1Nc1nc2ccccc2nc1Nc1ccc(O)cc1C
 : -8.6%, -1.19, i
CCn1c(Cc2ccccc2)nnc1SCC(=O)OC(C)C
 : 2.4%, 0.98, i
CCOC(=O)c1[nH]c2cc(OC)c(OC)cc2c1N
 : -3.1%, ., i
Clc1ccc(CN2C3=NCCN3c3ccccc32)cc1
 : 1.6%, 1.74, i
O=S(=O)(N1CCCCC1)n1nnc2ccccc21
 : 0.1%, 0.64, i
Cn1nccc1/C=C(/C#N)S(=O)(=O)c1ccccc1
 : 2.9%, 0.83, i
CCCCOC(=O)Nc1ccc(S(=O)(=O)Nn2cnnc2)cc1
 : 0.1%, -0.92, i
CCc1cc2cccc(C)c2nc1SCC(=O)N1CCN(C(=O)c2ccco2)CC1
 : 0.8%, -1.26, i
COc1cc(OC)c(NC(=O)c2ccc(Br)o2)cc1Cl
 : -2.9%, -0.47, i
O=C1c2cccnc2C(=O)N1Cc1ccc(F)cc1
 : -1.8%, 1.56, i
COc1cccc(C(C#N)N2N=C(C)CC2(C)C)c1O (stereo unspecified)
 : -0.7%, ., i
CCc1nc(SCC(=O)Nc2nccs2)c2oc3ccccc3c2n1
 : 0.1%, -0.18, i
CC(=O)Nc1ccc(S(=O)(=O)NC2=C(N3CCN(c4ccc(F)cc4)CC3)C(=O)c3ccccc3C2=O)cc1
 : 7.4%, ., i
OCCN1CCN(CCCN2c3ccccc3Sc3ccc(C(F)(F)F)cc32)CC1
 : -5.7%, 0.01, +
C=CCn1c(N2CCCCCC2)nc2c1c(=O)[nH]c(=O)n2C
 : -0.7%, 0.88, i
Fc1cccc(-c2nn[nH]n2)c1
 : 2.6%, ., i
COc1ccc(N=NC2=C(O)CC(C)(C)CC2=O)cc1
 : -9.4%, ., i
Cc1cnnc2ccc3c(no[n+]3[O-])c12
 : 3.5%, ., i
CCCCNC(=O)CSc1nnc(-c2ccco2)n1C
 : 3.0%, -0.01, i
CN(CC(=O)NCCCN1CCOCC1)S(=O)(=O)c1ccc(Br)cc1
 : -0.8%, -0.57, i
Cc1cc2oc(C(=O)NC3CCS(=O)(=O)C3)c(C)c2cc1C (stereo unspecified)
 : -2.7%, 0.19, i
CCN(CC(=O)NC(c1ccccc1)c1ccccc1)Cc1nc2ccccc2c(=O)[nH]1
 : 7.0%, ., i
O=C(c1ccccc1)N1CCCC(C(=O)N2CCc3ccccc3C2)C1 (stereo unspecified)
 : 3.5%, ., i
Cc1nn(Cc2ccccc2Cl)c(C)c1NC(=O)C1C2CCC(O2)C1C(=O)O (stereo unspecified)
 : -1.5%, 0.25, i
O=C(NCc1ccc(F)cc1)c1cc(-c2ccco2)on1
 : 1.8%, -0.29, i
NC(=O)c1cc(S(=O)(=O)Nc2cccc(F)c2)co1
 : 3.1%, 1.09, i
CCCC(=O)Nc1c(C(=O)OCC)[nH]c2ccccc12
 : 2.6%, -0.59, i
Cc1ccc(N2C(=O)c3ccccc3NC2C(C)Cc2ccc3c(c2)OCO3)cc1 (stereo unspecified)
 : 5.3%, ., i
CCOC(=O)c1cccc(NC(=O)CN(c2ccc(C)cc2)S(=O)(=O)c2c(C)n[nH]c2C)c1
 : 5.0%, 1.43, i
O=C(COC(=O)C1CC(=O)N(c2ccc3c(c2)OCCO3)C1)NC1CCCc2ccccc21 (stereo unspecified)
 : 6.9%, 0.12, i
COc1ccccc1-c1noc(CCC(=O)Nc2cccc(C)c2)n1
 : -6.7%, -0.68, i
CC(=O)Nc1coc2ccc(Br)cc12
 : -1.3%, -0.43, i
CC(=O)C(Sc1nn(C)c(=S)s1)C(=O)Nc1ccccc1 (stereo unspecified)
 : -3.6%, 0.28, i
O=C(O)CN1CCN(Cc2ccc(F)cc2Cl)C1=O
 : -5.0%, 1.13, i
COc1ccc(-n2c(Cc3cccn3C)nnc2SCC(=O)Nc2ccccc2F)cc1
 : -1.0%, -1.99, i
Cc1cc(NC(=O)c2ccco2)ncc1NC(=O)CCc1ccccc1
 : -5.6%, -2.7, i
c1ccc(CNCC2COc3ccccc3O2)cc1 (stereo unspecified)
 : 4.2%, ., i
Cc1cc(NC(=O)c2ccc3c(c2)OCCO3)no1
 : -3.8%, 0.63, +
CCn1c(N2CCN(C(=O)NC3CCCCC3)CC2)nc2ccccc21
 : -3.4%, ., i
Cn1c(=O)[nH]c(=O)c2c1nc(Br)n2CCCO
 : -1.8%, 1.25, i
O=C(NCc1ccco1)c1ccc2nc3sc4c(c3c(=O)n2c1)CCCC4
 : -2.2%, -0.07, i
Cc1ccc(C)c(NC(=O)CSc2nnc(CSc3nc(C)cc(C)n3)n2Cc2ccco2)c1
 : 5.3%, -0.46, i
CC(=O)Nc1c(O)nc(SCC(=O)Nc2cccc(C)c2)[nH]c1=O
 : 0.9%, ., i
CCOC(=O)c1sc(N)c(C#N)c1CSc1nnc(C2CCCCC2)n1N
 : -5.8%, -1.7, i

Ordered by count of non-hydrogen atoms (highest first): some entries from above.
Values run as follows: Hsc70 ATP site, WNV protease inh, MT1-MMP reporter
CC(=O)C(Sc1nn(C)c(=S)s1)C(=O)Nc1ccccc1 (stereo unspecified)
 : -3.6%, 0.28, i
Cc1cc(NC(=O)c2ccc3c(c2)OCCO3)no1
 : -3.8%, 0.63, +
Cn1c(=O)[nH]c(=O)c2c1nc(Br)n2CCCO
 : -1.8%, 1.25, i

Carrying on:
Values run as follows: Hsc70 ATP site, WNV protease inh, MT1-MMP reporter
CCn1c(=O)c(C(=O)NCc2ccc(OC)cc2)c(O)c2ccccc21
 : 3.9%, -0.16, i
CCOC(=O)N1CCN(c2c(N3CCC(N4CCCCC4)CC3)c(=O)c2=O)CC1
 : -0.4%, -0.13, i
CCN(CC)CCNC(=O)Cn1cnc2sc(C)c(S(=O)(=O)N3CCOCC3)c2c1=O
 : 1.4%, ., i
O=C(CSc1nnc(CSc2nc3ccccc3s2)o1)NC1CCCCC1
 : -1.6%, -0.3, i
Cc1cc(OCCCCCNCCO)ccc1Cl
 : -1.1%, 0.88, i
COc1cc2c(cc1OC)C(C)N(C(=O)c1cc3ccccc3o1)CC2 (stereo unspecified)
 : 0.0%, -0.59, i
Cc1sc2nc(CN(C(=O)c3cccs3)C3CCCC3)[nH]c(=O)c2c1C
 : 1.2%, 0.81, i
Cc1ccc(-c2nnn(CC(=O)N3c4ccccc4CCc4ccccc43)n2)cc1
 : -1.1%, ., i
Cc1cc(C(=O)OCC(=O)NCc2ccco2)c(C)n1-c1ccc(F)cc1
 : -3.4%, -0.78, i
COc1cc(C2=NOC(C(=O)NC3CCCCC3)C2)cc(OC)c1OC (stereo unspecified)
 : 4.7%, 0.93, i
CN(C)c1nc(OCCNC(=O)COc2ccc(Cl)cc2Cl)nc(N2CCOCC2)n1
 : -5.5%, -0.13, i
Cc1cccc(CCNC(=O)c2nnc(Cc3ccc(Cl)cc3)o2)c1
 : 1.2%, -0.76, i
CNc1ccccc1-n1ccc(-c2ccccc2)n1
 : 1.8%, -0.76, i
c1ccc2c(N3CCCCC3)nc(N3CCCCC3)nc2c1
 : -1.8%, -0.58, i
Cc1nn(Cc2ccccc2)c(Cl)c1C(=O)OCc1nnc(-c2ccc(Cl)cc2)o1
 : -0.5%, 0.89, i
O=C(CSc1nc2c(cnn2-c2ccc(F)cc2)c(=O)[nH]1)N1CCCCCC1
 : 11.2%, 0.57, i
O=C(NCCN1CCOCC1)c1ccc2c(c1)N(Cc1ccc(F)cc1)C(=O)CS2
 : -1.0%, 0.57, i
Cc1nn(-c2ccccc2)c2c1C1(C(=O)N(C)c3ccccc31)C(C#N)=C(N)O2 (stereo unspecified)
 : 1.1%, 0.53, i
CSc1cccc(NC(=O)COc2ccccc2)c1
 : -3.6%, 0.85, i
CCc1nc2ccccc2n1CC(=O)N(C(C)CC)C1CCS(=O)(=O)C1 (stereo unspecified)
 : 0.0%, -0.07, i
CC1(C)CC2CC(C)(CN2C(=O)C23CCC(C)(C(=O)O2)C3(C)C)C1 (stereo unspecified)
 : 3.4%, -1.26, i
COCCN(Cc1cc2ccc(C)cc2n2nnnc12)Cc1nnnn1C(C)(C)C
 : -2.2%, ., i
c1ccc2c(NCC3CCCO3)nc(-c3ccncc3)nc2c1 (stereo unspecified)
 : 0.6%, -0.74, i
Cc1noc(C)c1CSc1nc2ccccc2nc1NS(=O)(=O)c1ccc(Cl)cc1
 : 0.5%, 1.79, i
CCSc1nnc(NC(=O)C(C(F)(F)F)C(F)(F)F)s1
 : -4.7%, -0.78, i
COc1ccccc1NC(=O)c1cc(Sc2nncn2C)nc2ccccc12
 : -3.6%, -1, i
O=C(CSc1nnc(-c2ccccc2O)o1)N1CCc2ccccc2C1
 : 3.4%, 0.94, i
CCCOc1ccc(N2C(=O)CC(N3CCCC(C(=O)N4CCCC4)C3)C2=O)cc1 (stereo unspecified)
 : 5.1%, -0.39, i
O=CN1CCN(C(C(=O)NC2CCCC2)c2ccc(Cl)cc2)CC1 (stereo unspecified)
 : -1.1%, -0.24, i
COc1ccc(OCC(O)CON2C(=O)c3ccccc3C2=O)cc1 (stereo unspecified)
 : 4.2%, 2.07, i

Complete entries, quoted from the list:
COc1cc2c(cc1OC)C(C)N(C(=O)c1cc3ccccc3o1)CC2 (stereo unspecified) is entered as Hsc70 ATP site = 0.0%; WNV protease inh = -0.59; MT1-MMP reporter = i
COc1cc(C2=NOC(C(=O)NC3CCCCC3)C2)cc(OC)c1OC (stereo unspecified) is entered as Hsc70 ATP site = 4.7%; WNV protease inh = 0.93; MT1-MMP reporter = i

Other records
Values run as follows: Hsc70 ATP site, WNV protease inh, MT1-MMP reporter
CS(=O)(=O)N(CC(O)Cn1c2ccccc2c2ccccc21)c1ccccc1 (stereo unspecified)
 : -7.8%, -0.18, i
O=C1c2ccccc2C(=O)N1CSc1nnc2c3ccccc3n(CCc3ccccc3)c2n1
 : -2.3%, ., i
CCC(CC)C(=O)OCC(=O)NC12CC3CC(CC(C3)C1)C2
 : -0.5%, ., i
CCCCNC(=O)CC1N=C2c3ccccc3N=C(SCC(=O)Nc3cccc(OC)c3)N2C1=O (stereo unspecified)
 : 3.4%, -0.77, i
CCC(Sc1nc2n[nH]c(C)c2c(=N)n1-c1cccc(Cl)c1C)C(=O)N(CC)CC (stereo unspecified)
 : -7.7%, 0.98, i
CC1=CC(C)(C)N2C(=O)C3(C(C#N)=C(N)OC4=C3C(=O)CCC4)c3c(C)c(C)cc1c32 (stereo unspecified)
 : -0.2%, 0.8, i
COc1cc(OC)cc(-c2n[nH]c(=S)n2-c2cc(OC)ccc2OC)c1
 : 0.7%, ., i
CC(C)(CS(=O)(=O)[O-])NC(=O)CC[N+](C)(C)CCO
 : 0.5%, ., i
Cc1cnc(C(=O)NCCc2ccc(S(=O)(=O)NC(=O)NC3CCCCC3)cc2)cn1
 : -0.9%, 0.3, i
N#CCCN(CCC#N)C(=O)c1ccc2c(c1)OCO2
 : 5.1%, 0.11, i
COc1cccc(-c2nnc(N(C)C(=O)c3ccno3)s2)c1
 : -6.4%, 0.63, i
CC(/C=C/c1ccccc1)=N\NC(=O)C1CC1(C)c1ccccc1 (stereo unspecified)
 : -2.1%, ., i
O=C(NCc1ccco1)C1CCCN(S(=O)(=O)Cc2ccccc2)C1 (stereo unspecified)
 : 0.7%, ., i
CC(=O)N1CCN=C1SCc1ccccc1F
 : 0.3%, 0.15, i
CC(=O)/C=C/c1ccc2ccccc2n1
 : 1.8%, ., i
CCOC(=O)c1c(N)c(C#N)nn1-c1ccccc1C(=O)OC
 : -0.1%, 1.03, i
O=C(CCC(=O)N(c1cccc(F)c1)C(C(=O)NC1CCCC1)c1ccncc1)Nc1cccnc1 (stereo unspecified)
 : -1.2%, 0.25, i
Cn1c(=O)c2c(nc(NCC3CCCO3)n2C)n(C)c1=O (stereo unspecified)
 : -2.5%, -0.4, i
COc1ccc(-n2c(SC3CCOC3=O)nc3ccccc3c2=O)cc1OC (stereo unspecified)
 : 3.8%, -0.44, i
O=C(Nc1ccccc1C(F)(F)F)NC1CCCCC1
 : 0.6%, ., i
Cc1cc(=O)n(C)c(=O)n1CCCCCCN1CCCC1
 : 3.1%, ., i
O=C(CCN1C(=O)C2(OCCO2)c2ccccc21)c1ccccc1
 : -3.1%, -0.57, i
Cc1ccccc1-c1nnc(SCC(=O)Nc2c(C)n(C)n(-c3ccccc3)c2=O)o1
 : -3.1%, ., i
N=C1C(c2nc3ccccc3c(=O)[nH]2)=C(O)CN1CCc1ccccc1
 : 3.5%, -0.15, i
COc1ccc(C)cc1NC(=O)CSc1nnc(COc2ccccc2)n1Cc1ccco1
 : 1.9%, 0.01, i
C=CCn1c(SCC(=O)c2cccs2)nc2sc(C)c(C)c2c1=O
 : -5.3%, ., i
c1cc2c(c(NCc3ccncc3)c1)CCCC2
 : 2.4%, -0.26, i
COC(=O)C1=C(N)Oc2c(oc(CO)cc2=O)C1c1ccccc1F (stereo unspecified)
 : -1.2%, ., i
CC(C)C(=O)Nc1cccc(NC(=O)c2cc3ccccc3o2)c1
 : 5.4%, -0.63, i
CC(=O)Nc1ccccc1OCC(=O)c1ccc2c(c1)OCO2
 : -4.1%, -0.72, i
CC(NC(=O)c1noc2c1CCCC2)c1ccccc1 (stereo unspecified)
 : -2.3%, 0.9, i
O=C(CN(Cc1ccc(F)cc1)C(=O)CCC(=O)Nc1ccccn1)NCc1ccco1
 : -0.4%, -0.46, i

High-throughput results from PubChem BioAssay.

These rows are one share of the data; rates above refer to the full screens.
